VACV mCherry inh = inhibitors of vaccinia virus infection (mCherry reporter signal) | Vaccinia virus mCherry reporter infection, fluorescence; about a quarter of the inactives have no number | Potency, µM (top dose mostly 36.5 µM), for inactives: top-dose activity change, negative = inhibition, most hits filed as inhibitors | 310,000 compounds, 0.63% hits; active = well fitted inhibition curve with a large enough effect; inconclusive = small, poorly fitted or top-dose-only effect; inactive = no such curve, though single readings can be large or run the other way; tested in A549 cells; also: nearly all actives have a fitted effect of over 35% in size; inactives centre near -10
VACV Venus inh = inhibitors of vaccinia virus (Venus reporter); Vaccinia virus Venus reporter expression, fluorescence; Potency, µM (top dose mostly 36.5 µM), for inactives: top-dose activity change, negative = inhibition, actives largely listed as inhibitors; 330,000 compounds, 0.46% hits; AID 720580; active means well fitted inhibition curve with a large enough effect; inconclusive means small, poorly fitted or top-dose-only effect; inactive means no such curve, though single readings can be large or run the other way; tested in A549 cells; also: nearly all actives have a fitted effect of over 30% in size; inactives centre near -10
Active calls of the source: *; i = inactive; ? = inconclusive; . = no result given; & = joins results of further samples; [ ] = remark or other dose. % is scaled to controls: 0 for no effect and ±100 for the full control effect; potency is read from the fitted curve at half-maximal effect.

Sequence of screens: VACV Venus inh | VACV mCherry inh
> CNC(=O)c1c(Cl)cnn1-c1ccc(F)cc1
  -3% | i
> CN(C)C1CN(Cc2cn(Cc3ccc(F)cc3)nn2)S(=O)(=O)C1 (stereo not given)
  1% | 7%
> Cc1cc(C)cc(Nc2nc3c(S(=O)(=O)c4cccc(Cl)c4)nnn3c3ccsc23)c1
  -8% | -13%
> COc1cc(/C=C2/C(=O)NN(c3cccc(C)c3)C2=O)ccc1OC(=O)c1ccco1
  -6% | i
> CC(C)NC(=O)N(C)C[C@H]1Oc2ccc(NC(=O)Cc3ccccc3)cc2C(=O)N([C@H](C)CO)C[C@@H]1C
  -8% | i
> Nc1ccn(Cc2ccc(F)cc2)n1
  -3% | -9%
> COc1ccc(CCNC(=O)COC(=O)C23CC4CC(CC(C4)C2)C3)cc1
  -18% | -18%
> Cc1cc(NC(=O)CN(C)S(=O)(=O)c2ccc3c(c2)CCC(=O)N3)ccc1Br
  -27% | -3%
> O=C(C1=C(O)C(=O)N(c2ncccn2)C1c1cccc(Cl)c1)c1ccco1 (stereo not given)
  -11% | -4%
> CCOc1ccccc1NC(=O)n1ncc2cc(Cl)ccc21
  -11% | -11%
> CCOC(=O)N=Nc1c(O)n(C)c2ccccc12
  -2% | i
> COc1cccc(-c2nc3c(C#N)c[nH]n3c2NC2CCC(C)CC2)c1 (stereo not given)
  ? | -24%
> N=c1sccn1CC(=O)Nc1ccc(S(=O)(=O)N2CCOCC2)cc1
  -27% | ?
> Cc1nn(-c2ccccc2)c2c1C(c1ccc3c(c1)OCO3)SCC(=O)N2 (stereo not given)
  -6% | -19%
> CC(C)N1CCN(Cc2cccc([N+](=O)[O-])c2)CC1
  -3% | i
> O=C(COC(=O)C1C2CC3OC(=O)C1C3C2)Nc1ccc(F)cc1 (stereo not given)
  -7% | -1%
> C=CCn1c(O)c(N=Nc2nc3ccccc3c(=O)n2-c2ccccc2)c2ccccc21
  -8% | -9%
> O=C(COC(=O)/C=C/c1ccc([N+](=O)[O-])cc1)NCC1CCCCC1
  -14% | -13%
> COc1ccccc1-c1c(C)nn2c(N3CCN(c4cccc(Cl)c4)CC3)cc(C)nc12
  -15% | -9%
> COc1ccc(OCC(=O)NCc2ccc3c(c2)CCN3C(=O)c2ccc(F)cc2)cc1
  -12% | -9%
> O=C(Nc1onc2c1CCCC2)c1ccccc1
  -9% | -12%
> Cc1ccc(CNC(=O)c2cccc(-n3cnc4cccnc43)c2)cc1
  -5% | i
> S=C(Nc1ccccc1)Nc1ccc(Cl)cc1Cl
  -19% | -3%
> Cc1cc(N2CCCCC2)nc2ccc(NC(=O)c3cccc(F)c3)cc12
  -13% | -13%
> Cc1ccc(NC(=O)c2sc3nc[nH]c(=O)c3c2C)cc1C
  -13%[7.34 µM] | -23%[7.34 µM]
> CC(=O)NC(=O)NC(C)Cc1ccccc1 (stereo not given)
  -10% | -1%
> CC(C)c1cc(C(=O)N2CCCC(CCC(=O)N3CCN(c4ccccn4)CC3)C2)no1 (stereo not given)
  -8% | 14%
> Cc1oc2nc(SCC(=O)NCc3cccnc3)nc(N)c2c1C
  -3% | .
> O=C(CCn1c(SCC(=O)NCc2ccco2)nc2ccccc2c1=O)NCCc1ccccc1
  -7% | -12%
> Cn1c(=O)n(C)c2cc(S(=O)(=O)NCCOCCO)ccc21
  4% | -7%
> Cc1c2cn[nH]c(=O)c2c(C)n1Cc1ccc(F)cc1
  -13% | i
> O=C(NCc1nnc2n1CCCCC2)c1ccc(Cl)cc1Cl
  1% | .
> CCOc1ccccc1N1CCN(C(=O)c2cc(-c3cccnc3)nc3c(Cl)cccc23)CC1
  -21% | -7%
> COc1ccc(S(=O)(=O)Cc2ccc(C(=O)N3CCN(Cc4ccccc4)CC3)o2)cc1
  -7% | 3%
> COc1ccc(Cn2nnc3c(=O)[nH]c(C4CCN(C(=O)c5ccc(C)cc5)CC4)nc32)cc1OC
  0% | -4%
> COc1ccc(CNC(=O)c2cnc(N(C)C)nc2)cc1
  6% | -9%
> CCOc1ccc2[nH]c(C(=O)N/N=C/c3ccc(OC)cc3)cc2c1
  ? | ?
> CC(C)CC1NC(=O)c2cccnc2-n2c1nc1cc(F)c(F)cc1c2=O (stereo not given)
  -2% | i
> O=C(Nc1nnc(-c2ccccn2)o1)c1cccc(Cl)c1
  -17% | -6%
> COCCNC(=O)C(c1ccc(F)cc1)N(Cc1ccco1)C(=O)CCC(=O)Nc1ccccn1 (stereo not given)
  7% | -9%
> CCCCC[C@H](O)/C=C/[C@H]1C(=O)C=C[C@@H]1C/C=C\CCCC(=O)O
  -7%[3.33 µM] | i[3.33 µM]
> Cc1cc(C)n(-c2ccc(C(=O)OCC(=O)Nc3ccccc3[N+](=O)[O-])cc2)n1
  -14% | i
> O=C(O)Cn1c(-c2cccs2)cc2cc(Cl)ccc21
  -7% | -7%
> O=C1/C(=C/c2ccccn2)SC(=S)N1NS(=O)(=O)c1ccccc1
  -8% | -2%
> COc1cc2nc(CN3CCN(S(=O)(=O)c4cc(C)ccc4C)CC3)[nH]c(=O)c2cc1OC
  -10% | -22%
> C[C@H](O)[C@@H]1C(=O)N2CCc3c([nH]c4ccccc34)[C@@H]2C[C@@H]1N(C)C(=O)Nc1ccc(F)cc1
  -27% | -19%
> Cc1cccc(C)c1NC(=O)CN1CCN(C/C=C/c2ccccc2)CC1
  -5% | 11%
> Cc1ccc(CNC(=O)c2sc3nc(-c4ccccc4)cn3c2C)cc1
  -25% | -2%
> COc1cc(Cl)c(C)cc1NC(=O)c1cc2c(s1)-c1c(C)cccc1OC2
  -28% | -21%
> Cc1cc(=O)oc2cc(OCC(=O)NCc3ccccn3)ccc12
  0% | i
> CCN1CCN(c2c(S(=O)(=O)c3ccc(C)c(C)c3)cnc3cc(OC)c(OC)cc23)CC1
  -27% | -23%
> O=C(Cn1nnc(-c2ccc(Cl)cc2)n1)NC(=O)NC1CCCC1
  -3% | i
> CC(=O)Nc1c(C(=O)NCc2ccccc2)nnn1Cc1ccccc1
  -1% | -8%
> Cc1c(C(=O)OC2CCC(C)CC2)[nH]c2c1C(=O)CCC2 (stereo not given)
  -13% | -18%
> Cc1c(NC(=O)COC(=O)CSc2ccc(C(N)=O)cc2[N+](=O)[O-])c(=O)n(-c2ccccc2)n1C
  -13% | -11%
> CCCCCOC(=O)C1=C(C)NC(=O)NC1c1ccc(OC)cc1 (stereo not given)
  -14% | i
> O=C(COc1ccc(Cl)cc1)Nc1ccc(-c2nc3cc(Cl)ccc3o2)c(O)c1
  -1% | -5%
> COc1ccc2c(c1)c(=O)c(S(=O)(=O)c1ccc(C)c(C)c1)cn2CC(=O)Nc1ccccc1
  -13% | -15%
> CCCNC(=O)NC(=O)COC(=O)CC(NC(N)=O)c1ccc(Cl)cc1 (stereo not given)
  -15% | -16%
> CC1(C)Cc2c(sc(NC(=O)c3ccc(C(=O)c4ccccc4)cc3)c2C#N)C(C)(C)N1
  -19% | -22%

Complete entries as entered above. Order of values: VACV Venus inh	VACV mCherry inh
Record of `O=C1/C(=C/c2ccccn2)SC(=S)N1NS(=O)(=O)c1ccccc1` → -8%	-2%
Record of `COc1cc2nc(CN3CCN(S(=O)(=O)c4cc(C)ccc4C)CC3)[nH]c(=O)c2cc1OC` → -10%	-22%

(more compounds)
Sequence of screens: VACV Venus inh | VACV mCherry inh
> O=C(CN1CCN(S(=O)(=O)c2ccccc2)CC1)Nc1ccc2c(c1)CCC2
  -18% | -29%
> CC(NS(=O)(=O)c1ccc2c(c1)CC(C)N2C(=O)C1CC1)c1ccccc1 (stereo not given)
  -5% | -12%
> Cc1ccc(C[N+](C)(C)C)o1
  -10%&-24% | -1%
> CC(=O)N(Cc1ccc(F)cc1)C1=C(NCCc2ccccc2)C(=O)c2ccccc2C1=O
  3.2µM* | 2.8µM*
> COc1ccc(-c2cn3c(C)c(C(=O)N4CCN(c5ccc(F)cc5)CC4)sc3n2)cc1
  -10% | i
> O=C(CN1CCOCC1)Nc1scc(-c2ccccc2)c1C(=O)N1CCOCC1
  -2% | -4%
> COc1ccc(-c2nn(-c3ccccc3)cc2/C=N/NC(=O)c2cccc(S(=O)(=O)Nc3ccccc3Cl)c2)cc1
  -28% | -13%
> COc1ccc(CCN(C)C(=O)CN2C(=O)NC3(CCCCCC3)C2=O)cc1OC
  -20% | -1%
> N#Cc1c(-c2ccccc2)cc(-c2ccccc2)nc1SCC(O)CS(=O)(=O)Cc1ccc(Cl)cc1 (stereo not given)
  -4% | -18%
> O=C(COC(=O)c1nn(-c2ccccc2C(F)(F)F)cc1O)c1ccc(OC(F)F)cc1
  -11% | ?
> O=C(O)c1c2c(nc3ccccc13)CCCC2
  -11% | 17%
> O=C(COC(=O)CN1C(=O)C(=O)c2ccccc21)OCN1C(=O)c2ccccc2C1=O
  -2% | i
> O=C(OCC(=O)N1CCN(C(=O)c2ccco2)CC1)c1cccc(S(=O)(=O)N2CCc3ccccc32)c1
  -11% | i
> CCCn1c(=O)[nH]c(=O)c2c1nc(-c1cc([N+](=O)[O-])ccc1Cl)n2CCOC
  -8% | -20%
> CC(C)(C)Cc1c(-c2ccc(F)cc2)nc2ccc(Br)cn12
  -15% | -16%
> CCOc1ccccc1NS(=O)(=O)c1ccc(Br)s1
  -7% | -2%
> CCOC(=O)c1ccc(S(=O)(=O)N2CCN(C3CC(=O)N(c4ccccc4C(F)(F)F)C3=O)CC2)cc1 (stereo not given)
  -14% | i
> O=C(Nn1cnc2ccccc2c1=O)c1ccc([N+](=O)[O-])cc1Cl
  -8% | -8%
> Cc1ccc(-c2nc3c4ccccc4n(CC(=O)N4CCN(c5ccccc5F)CC4)c(=O)n3n2)cc1
  -1% | -6%
> Cc1nn(CC(=O)NNC(=O)c2ccccc2F)c([N+](=O)[O-])c1Br
  9% | i
> C=CCNC(=O)C1CC2Cn3c(nc4cc5ccccc5cc43)C2N1C (stereo not given)
  1% | -19%
> COc1ccc(NC(=O)CN2C(=O)NC(C)(c3ccc4c(c3)OCO4)C2=O)cc1S(N)(=O)=O (stereo not given)
  -8% | i
> CCCCCC(=O)Nc1cccc(C2=NOC3(C2)C[C@H](C(N)=O)N(C(=O)COc2ccc(Cl)cc2)C3)c1 (stereo not given in full)
  ? | -27%
> O=C(NC1CCCCC1)c1ccc(-n2cnnn2)cc1
  -2% | -3%
> COCCOc1cc(NC(=O)CS(=O)(=O)CC(=O)N(C)C)c(Cl)cc1Cl
  -8% | -15%
> C/C(=N\NC(=O)c1nnn(-c2nonc2N)c1CN(C)C)c1ccco1
  0%[7.34 µM] | -15%[7.34 µM]
> CN(CC(=O)N1CCN(c2ncccn2)CC1)S(=O)(=O)c1ccc(Cl)cc1
  -6% | -3%
> CS(=O)(=O)c1ccccc1C(=O)Nc1cccc2ncccc12
  0% | i
> Nc1cc(C(=O)OCC(=O)N2CCOCC2)ccc1Cl
  -3% | -2%
> CCOC(=O)CSCC(=O)Nc1c(C(=O)C2CC2)oc2ccccc12
  -4% | -8%
> Cc1oc2cc3oc(=O)c(CC(=O)N[C@H](C(=O)N[C@@H](C(=O)O)c4ccccc4)C(C)C)c(C)c3cc2c1C
  -3% | -2%
> Cc1ccc(S(=O)(=O)NC(=O)C2(C)CCN2C(=O)c2ccccc2CCc2ccccc2)nc1 (stereo not given)
  1% | 29%
> Cc1ccc(C)c2c1CCCC2=O
  -1% | -2%
> CCOC(=O)c1c(C)[nH]c(C(=O)OCC(=O)Nc2cc(C)ccc2OC)c1C
  -13% | -18%
> COC(=O)c1cccc2c(C(=O)O)cc(-c3ccccc3)nc12
  -2% | i
> Cc1cccc(N2CC(C)Cn3c2nc2c3c(=O)n(CC(=O)O)c(=O)n2C)c1 (stereo not given)
  -1% | -4%
> COc1ccc(-c2csc3nc(-c4ccccc4F)oc(=O)c23)cc1OC
  ? | ?
> CCOC(=O)c1nc(C)n(-c2cc(OC)c(Cl)cc2Cl)n1
  -2% | -10%
> COc1ccc(Cl)cc1NC(=O)CSc1nnc(C2CC2)n1N
  -7% | -12%
> Cc1ccc(-n2c(SCCC(C)C)nc3sc4c(c3c2=O)CC(C)(C)OC4)cc1
  4% | 1%
> O=C1CSCC(=O)N1Cc1ccc(Cl)c(Cl)c1
  -12% | i

6 entries out of the list, ordered by number of heavy atoms, largest number first.
Sequence of screens: VACV Venus inh | VACV mCherry inh
> CCOC(=O)c1c(C)[nH]c(C(=O)OCC(=O)Nc2cc(C)ccc2OC)c1C
  -13% | -18%
> COc1ccc(-c2csc3nc(-c4ccccc4F)oc(=O)c23)cc1OC
  ? | ?
> COC(=O)c1cccc2c(C(=O)O)cc(-c3ccccc3)nc12
  -2% | i
> CCOC(=O)c1nc(C)n(-c2cc(OC)c(Cl)cc2Cl)n1
  -2% | -10%
> O=C1CSCC(=O)N1Cc1ccc(Cl)c(Cl)c1
  -12% | i
> Cc1ccc(C)c2c1CCCC2=O
  -1% | -2%

Given with bars between the fields: two of the compounds above
compound | VACV Venus inh | VACV mCherry inh
Nc1cc(C(=O)OCC(=O)N2CCOCC2)ccc1Cl | -3% | -2%
CCOC(=O)CSCC(=O)Nc1c(C(=O)C2CC2)oc2ccccc12 | -4% | -8%

Rows were taken by chance; about 0.87% have a hit in one of these screens.
